Mtb H37Rv = Confirmatory growth inhibition assay against Mycobacterium tuberculosis H37Rv, potency (AID 1949) | most inactive calls were filed without a number and no value below 0 was filed | inhibition, % at 10 µg/mL, or IC50 in µg/mL where a hit was titrated | 100,000 compounds, 1.6% hits;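 active means confirmed in a dose series; inconclusive means about 50% or more but not retested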;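 further: bacteria grown 7 days with compound before Alamar blue readout; 0% = untreated bacteria and 100% = reference antibiotic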
Numbers without * were called inactive; i = inactive; ? = inconclusive.

SMILES | Mtb H37Rv
O=C(CN1C(=O)c2cccc3cccc1c23)NCC1CCCO1 (stereo unspecified) | i
COc1ccc(CCNC(=O)C2CCCCC2)cc1 | i
COc1ccccc1Oc1ccc(S(=O)(=O)Nc2ccc(Br)cc2F)cc1 | i
Cc1cc(C)c(OCCCCN2CCNCC2)c(Cl)c1 | i
COCCNCCCCOc1cc(C)ccc1C(C)(C)C | i
CC1=C(C(=O)OC(C)C)C(c2ccccc2Br)CC(=O)N1 (stereo unspecified) | i
Cc1cc(S(=O)(=O)N2CCOCC2)c(C)cc1Cl | i
O=C(c1cccc(F)c1)N1CCN(c2ccc(C(F)(F)F)cc2[N+](=O)[O-])CC1 | i
C=CCn1c(SCC(=O)Nc2cc(Cl)c(Cl)cc2Cl)nnc1C(C)NC(=O)c1cccc(C)c1 (stereo unspecified) | 15%
COc1cccc(NC(=O)C23CCC(C)(c4nc5ccccc5nc42)C3(C)C)c1 (stereo unspecified) | 1%
O=[N+]([O-])c1cc(Cl)c2cccnc2c1O | ?
COc1ccc(CCNC(=O)C2CCN(S(C)(=O)=O)CC2)cc1OC | 0%
CC(=O)c1ccc(OCCCN2CCCCC2)cc1 | i
CC(=O)NC1=NN(C(C)=O)C2(S1)C(=O)Nc1ccccc12 (stereo unspecified) | i
COc1cc2ccccc2cc1C(=O)NCC12CC3CC(CC(C3)C1)C2 | 13%
COC(=O)C1=CNC=C(C(=O)OC)C1c1ccsc1 | i
CC1CCc2c(sc3ncnc(SCC(=O)Nc4ccc(Cl)cc4)c23)C1 (stereo unspecified) | 37%
O=C(CCc1ccccc1)Nc1nnc(SCc2ccccc2F)s1 | 3%
CSc1ccc(OC2CCCCC2NS(=O)(=O)c2ccc(Cl)cc2)cc1 (stereo unspecified) | 1%
COc1ccc(NC(=O)C2CCN(C(=O)c3ccc(C(C)(C)C)cc3)CC2)cc1Cl | 10%

Some values from the results shown.
COc1ccc(CCNC(=O)C2CCN(S(C)(=O)=O)CC2)cc1OC in Mtb H37Rv → 0%
O=C(CCc1ccccc1)Nc1nnc(SCc2ccccc2F)s1 in Mtb H37Rv → 3%
CSc1ccc(OC2CCCCC2NS(=O)(=O)c2ccc(Cl)cc2)cc1 (stereo unspecified) in Mtb H37Rv → 1%
COc1cc2ccccc2cc1C(=O)NCC12CC3CC(CC(C3)C1)C2 in Mtb H37Rv → 13%

Next part:
SMILES | Mtb H37Rv
CCc1ccc(NC(=O)c2ccc(CN(c3ccccc3)S(C)(=O)=O)cc2)cc1 | i
CCNC(=O)c1cc(-c2ccc(Cl)cc2)nc2ccccc12 | i
C=CCC(CC=C)(C(N)=O)c1ccccc1 | 7%
Cc1onc(-c2ccccc2)c1C(=O)N1CCN(c2ccc([N+](=O)[O-])c(N3CCOCC3)c2)CC1 | i
CC(=O)N1N=C2C3CCN(CC3)C2C1c1ccc(Br)cc1 (stereo unspecified) | i
OCCNCc1ccc(Br)cc1 | i
COc1cc(NC(=O)c2cccc([N+](=O)[O-])c2)ccc1NC(=O)c1cc2ccccc2o1 | i
O=C(CN1C(=O)c2cccc3cccc(c23)C1=O)N1CCN(Cc2ccccc2)CC1 | 0%
O=C(CSc1nnc(-c2ccccc2)n1-c1ccc(F)cc1)N1CCOCC1 | i
Cc1ccc(-n2c(-c3cnccn3)n[nH]c2=S)c(Br)c1 | 2%
CS(=O)(=O)c1nncn1-c1ccccc1 | i
COc1ccc(Cl)cc1NC(=O)CSc1nccc(C)n1 | i
CCOCCCNc1oc(COc2ccc(F)cc2)nc1C#N | i
O=C(NCCc1cccc(Cl)c1)c1cccc(F)c1 | i
O=C(c1ccc(SCc2ccco2)c([N+](=O)[O-])c1)N1CCOCC1 | i
C=CCOc1c(Br)cc(CNc2cc(Cl)ccc2C)cc1OC | i
COC(=O)C1=C(C)Nc2ncnn2C1c1ccsc1 (stereo unspecified) | i
CC(C)Oc1cccc(C(=O)Nc2ccc3[nH]c(=O)[nH]c3c2)c1 | i
COc1ccc(OCC(O)CNc2ccc(Br)cc2)cc1 (stereo unspecified) | 8%
Cc1cccc(NC(=O)c2cc([N+](=O)[O-])ccc2NCc2ccco2)c1 | i
CC(C)(C)C1CCc2c(sc3nc(-c4cccs4)[nH]c(=O)c23)C1 (stereo unspecified) | i
CC(=O)CC(=O)Nc1ccccc1C(C)C | 2%
CC(C)CNC(=O)C(=O)NCCN(C)C | i
C#CCN1C(=O)C(O)(CC(=O)c2ccc3c(c2)OCCO3)c2ccccc21 (stereo unspecified) | i
CC1CCCCN1C(=O)N1c2ccccc2Sc2ccccc21 (stereo unspecified) | 5%
O=S(=O)(NCC(Sc1ccc(F)cc1)c1ccccc1)c1ccc(Cl)cc1 (stereo unspecified) | i
CCOC(=O)CN1C(=O)C2C3c4ccccc4C(c4ccccc43)C2C1=O (stereo unspecified) | 1%
O=C(Cc1ccc(Cl)cc1)NC1CCN(Cc2ccccc2)CC1 | i
Cc1ccc2nc(Nc3nc(CSc4nc5ccccc5s4)cc(=O)[nH]3)nc(C)c2c1 | 34%
CC(C)(C)C(=O)Nc1ccc(N2CCN(C(=O)c3ccccc3)CC2)c(Cl)c1 | i
CCCCNCc1cc(Br)c(OCC(=O)N2CCOCC2)c(OC)c1 | i
O=[N+]([O-])c1ccc(Oc2ccc(F)cc2)cc1 | i
O=C(NC1CCCCC1)N1CCN(c2nnc(-c3ccccc3)c3ccccc23)CC1 | 15%
CC(=O)c1cccc(NC(=O)COc2ccc(S(=O)(=O)N3CCCC3)cc2Cl)c1 | 2%
Cc1ccc(Oc2ccc3c(c2)C(=O)N(CC2CCCO2)C3=O)cc1C (stereo unspecified) | i
CC(=O)N(C)c1ccc(NC(=O)COc2cc(C)c(Cl)c(C)c2)cc1 | 9%
COc1cc(OC)cc(-c2nnc(SCC(=O)Nc3ccc(Cl)cc3C)n2-c2ccccc2)c1 | i
O=C1CC(N2CCC(O)(c3ccc(Cl)cc3)CC2)C(=O)N1 (stereo unspecified) | i
Cc1ccc(S(N)(=O)=O)cc1NC(=O)Cc1ccccc1 | i
Cc1ccc(CC(=O)N(C)Cc2ccccc2)cc1 | i
COC(=O)c1sc(N2C(=O)c3oc4ccccc4c(=O)c3C2c2ccccc2F)nc1C (stereo unspecified) | i
CCn1c(CNC(=O)c2ccc(C)cc2)nnc1SCC(=O)Nc1c(C)cc(I)cc1C | i
C=CCn1c(CNC(=O)c2ccccc2)nnc1SCC(=O)Nc1ccccc1F | i
c1ccc(Cc2nnc3sc(-c4cccs4)nn23)cc1 | 3%
Cc1sc2ncnc(SCC(=O)N3CCC(C)CC3)c2c1C | i
CCC(C)c1ccccc1OCCCNCCCOC (stereo unspecified) | i
COc1cc(NC(=S)N2CCCC(C)C2)cc(OC)c1 (stereo unspecified) | i
COc1cccc(C(=O)N2CCN(Cc3ccc(C)cc3)CC2)c1OC | i
Cc1c(O)nc(SCC(=O)Nc2cccc(C(F)(F)F)c2)n(-c2ccccc2)c1=O | i
O=C(O)CCc1nn2c3ccccc3n(CCN3CCCCC3)c2nc1=O | i

Given field by field: 2 of the compounds above.
C=CCn1c(CNC(=O)c2ccccc2)nnc1SCC(=O)Nc1ccccc1F
  Mtb H37Rv: i
c1ccc(Cc2nnc3sc(-c4cccs4)nn23)cc1
  Mtb H37Rv: 3%

Continued:
SMILES | Mtb H37Rv
O=C1CSC(=Nc2ccc(I)cc2)N1 | i
CCSc1ccccc1C(=O)Nc1cc(S(=O)(=O)N(CC)CC)ccc1OC | i
Cc1cc(C(C)(C)C)cc(S(=O)(=O)Nc2ccc(O)c(C(=O)O)c2)c1C | i
CN(C(=O)Cc1ccccc1)c1ccccc1[N+](=O)[O-] | i
COC(=O)C(CC(C)C)NC(=O)C(Cl)(Cl)Cl (stereo unspecified) | i
COc1cccc(N2CCN(C3CC(=O)N(c4cc(OC)ccc4C)C3=O)CC2)c1 (stereo unspecified) | i
CS(=O)(=O)N(CC(=O)Nc1cccnc1)c1ccc(F)c(Cl)c1 | i
COc1ccc(S(=O)(=O)N(C)CC(N)=O)cc1C | i
CC(C)CNS(=O)(=O)c1ccc(OCC(=O)NCc2ccc(Cl)cc2)c(Cl)c1 | i
O=C(c1ccccc1NS(=O)(=O)c1ccc(Br)s1)N1CCOCC1 | i
C#CCOC(=O)CCCC(=O)Nc1cccc2ccccc12 | i
COc1cccc(OC)c1OCCOc1ccc(C)cc1Br | i
C=CCn1c(SCc2ccc([N+](=O)[O-])cc2)nnc1C(CC(C)C)NC(=O)c1ccccc1Cl (stereo unspecified) | i
O=C(NCc1ccco1)C1c2ccccc2Oc2ccccc21 | 1%
COc1ccc(C)cc1NC(=O)CCN1CC(C)OC(C)C1 (stereo unspecified) | i
CCOC(=O)c1ccc(NC(=O)/C(=C\c2ccc(F)cc2)NC(=O)c2ccco2)cc1 | i
CC(C)c1ccccc1NC(=O)COc1ccc(/C=C(\C#N)C(N)=S)cc1 | 1%
CCC(=O)NC(=S)Nc1ccc(NC(=O)c2ccco2)c(OC)c1 | ?
O=C(NCc1cccnc1)c1cnn2c(C(F)(F)F)cc(-c3ccc(F)cc3)nc12 | i
COc1cc(/C=c2\sc3nc4c(C)cccc4n3c2=O)ccc1O | i
CS(=O)(=O)N(CC(=O)Nc1ccc2ccccc2c1)c1cccc(Cl)c1 | i
CSc1ccccc1-n1nnnc1SCC(=O)Nc1ccccc1C | 2%
FC(F)(F)c1nnc2ccc(N3CCCCC3)nn12 | i
COc1ccc(S(=O)(=O)N(CC(=O)Nc2ccc(C)cc2C)c2cccc(Cl)c2)cc1 | 2%
CCC(C)NS(=O)(=O)c1ccc(NC(=O)C(C)Oc2ccc(Cl)cc2Cl)cc1 (stereo unspecified) | 14%
O=C(c1ccccc1)c1ccc(NC(=O)c2ccccc2F)c(NC(=O)c2ccccc2F)c1 | 2%
CCOC(=O)c1sc(NC(=O)CSc2nnc(-c3ccc(OC)cc3)o2)nc1C | i
Cc1ccc(-c2nnc(C34CC5CC(CC(C5)C3)C4)o2)cc1 | i
Cc1nc2ccccc2c(=O)n1-c1cc(Cl)ccc1Cl | i
O=C(Cc1ccc(-c2ccccc2)cc1)NC(c1ccccc1)c1ccccc1 | i

In another format: results already given.
Structure,Mtb H37Rv
O=C(c1ccccc1)c1ccc(NC(=O)c2ccccc2F)c(NC(=O)c2ccccc2F)c1,2%
CCOC(=O)c1sc(NC(=O)CSc2nnc(-c3ccc(OC)cc3)o2)nc1C,i
Cc1ccc(-c2nnc(C34CC5CC(CC(C5)C3)C4)o2)cc1,i
Cc1nc2ccccc2c(=O)n1-c1cc(Cl)ccc1Cl,i
O=C(Cc1ccc(-c2ccccc2)cc1)NC(c1ccccc1)c1ccccc1,i

The listing picks up, repeating the 3 entries before the break.
SMILES | Mtb H37Rv
Cc1ccc(-c2nnc(C34CC5CC(CC(C5)C3)C4)o2)cc1 | i
Cc1nc2ccccc2c(=O)n1-c1cc(Cl)ccc1Cl | i
O=C(Cc1ccc(-c2ccccc2)cc1)NC(c1ccccc1)c1ccccc1 | i
Cc1cc(C)c(S(=O)(=O)N(CC(=O)O)C2CCCCC2)c(C)c1 | i
CCSc1nnc(NC(=O)c2ccc(C)c(S(=O)(=O)N3CCCC3)c2)s1 | i
Cn1c(SCC(=O)NC(C)(C)C)nnc1-c1ccco1 | i
CC1=NN(c2cccc(C(=O)O)c2)C(=O)/C1=C\c1ccc(F)cc1 | i
Cc1ccc(S(=O)(=O)N(CC(=O)NCCC2=CCCCC2)c2ccccc2F)cc1 | i
CC(Oc1cccc(Cl)c1)C(=O)Nc1cccc(F)c1 (stereo unspecified) | i
O=C(O)c1ccc(C2Nc3c(Br)cccc3C3C=CCC32)cc1 (stereo unspecified) | i
CC(=O)c1cccc(NC(=O)C(=O)NCc2ccccn2)c1 | i
Cc1ccc(-c2n[nH]c(=O)c3ccccc23)cc1S(=O)(=O)N1CCN(Cc2ccccc2)CC1 | 16%
C=CCn1c(SCC(=O)c2cccs2)nc2sc(C)cc2c1=O | 2%
COc1ccc(OCCCC(=O)Nc2ccc([N+](=O)[O-])cc2)cc1 | i
Cc1cc(S(=O)(=O)N2CCN=C2c2ccccc2)ccc1F | i
COc1ccc(S(=O)(=O)NCc2ccco2)cc1 | 4%
O=C(Oc1ccc(C(=S)N2CCC(O)CC2)cc1)c1ccc(Cl)cc1 | i
CC(=O)N1CCn2c3c(c(=O)c4cc(C)ccc42)CCC31 (stereo unspecified) | i
COc1cc(NC(=O)c2ccc3c(c2)OCCO3)ccc1NC(=O)c1ccccc1Cl | 0.66µg/mL*
CCOC(=O)C1C(=O)NC(N2CCOCC2)=NC1C(C)C (stereo unspecified) | i
CCCC1(O)CC(c2ccc(Cl)cc2)NC(c2ccc(Cl)cc2)C1C (stereo unspecified) | 2.3µg/mL*
CC(C)CCNC(=O)c1cccc(C(=O)NCCC(C)C)c1 | i
COc1cccc(Nc2nc(-c3ccccn3)cs2)c1 | 0.17µg/mL*
CC1CCCCC1NC(=O)c1cccc([N+](=O)[O-])c1 (stereo unspecified) | i
Cc1cc(C)c(CSc2nc(N)cc(=O)[nH]2)c(C)c1 | 7%
COC(=O)c1ccccc1NC(=O)CSc1nnnn1C1CCCCC1 | i
CCOC(=O)CSc1nc2ccccc2c(=O)n1-c1ccccc1 | i
COc1ccccc1NS(=O)(=O)c1ccc(NC(=S)Nc2cccc(Cl)c2Cl)cc1 | i
O=C(NCCNC1CCC(c2ccccc2)CC1)c1ccc(F)cc1 (stereo unspecified) | 50%
Cc1ccccc1C(=O)Nc1ccccc1C(=O)NCC(C)C | i
COc1cc(NC(=S)N2CCC(C(O)(c3ccccc3)c3ccccc3)CC2)cc(OC)c1 | i
Cc1ccc(Cl)cc1N(CC(=O)Nc1ccccc1C(=O)NC(C)C)S(=O)(=O)c1ccccc1 | i
COc1ccc(C(=O)CSc2nnc(C34CC5CC(CC(C5)C3)C4)n2-c2ccccc2)cc1 | 1%

Some of the compounds tested; the hit share may differ from the screen's.
